Screening data deposited in PubChem BioAssay by National Center for Advancing Translational Sciences (NCATS).
HPGD block: blocks human HPGD enzyme activity | AID 894 | purified HPGD, NADH fluorescence kinetic, PGE2 substrate | P15428 | 150,000 compounds, 4.3% hits | Potency, µM, for the others: at the top dose activity change, negative = inhibition, hits mostly inhibitors; active = well fitted inhibition curve with a large enough effect (not every such curve was filed as active); inconclusive = small, poorly fitted or top-dose-only effect, or another doubt; inactive = no such curve, though single readings can be large or run the other way;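 further: top concentration of the series not given in the record; plate controls included wells without enzyme; inactives centre near -10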
Target sequence (P15428 whole entry, looked up): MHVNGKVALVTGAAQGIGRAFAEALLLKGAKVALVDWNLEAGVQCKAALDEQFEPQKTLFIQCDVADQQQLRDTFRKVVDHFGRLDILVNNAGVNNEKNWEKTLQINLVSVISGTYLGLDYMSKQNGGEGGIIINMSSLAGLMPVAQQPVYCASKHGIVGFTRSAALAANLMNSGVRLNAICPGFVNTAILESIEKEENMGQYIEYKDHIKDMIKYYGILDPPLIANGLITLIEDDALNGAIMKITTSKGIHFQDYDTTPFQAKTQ
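NADH formation kinetics: reaction with 30 uM PGE2 and 1 mM NAD+ (final), 20 nM enzyme, Tris-HCl pH 8 with Tween 20, after 15 min compound preincubation at room temperature. Fluorescence change, last versus first of five reads.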
An asterisk follows results filed as active; ? = inconclusive. On the % scale 0 is the no-effect control and ±100 the full control effect; potency means the concentration at half of the fitted maximal effect. An excerpt; the hit share may differ from the screen's.

SMILES	HPGD block
CS(=O)(=O)NC1c2cccc3cccc(c23)C1Sc1nncn1/N=C/c1ccco1 (stereo not given)	1.2%
Cc1ccc(NC(=O)CS(=O)CC(=O)NC2CCN(Cc3ccccc3)CC2)c(C)c1 (stereo not given)	5.8%
Cc1nn(Cc2c(Cl)cccc2Cl)c(C)c1NC(=O)c1cnn2c(C(F)F)cc(-c3ccccc3)nc12	-13.9%
O=C1c2ccccc2C(=O)N1CCc1csc(-c2ccccc2)n1	-9.9%
Cc1cccc(N2C(S)=C(C#N)C(=O)NC23CCCCC3)c1	-23.9%
CNC(=S)NNC(=O)CCn1nc(C)c(Br)c1C	-11.7%
Cc1ccc(S(=O)(=O)CCC(=O)NCc2ccco2)cc1	-7.9%
Cc1ccc(CC2CC(=O)N(c3cc(C)on3)C2=O)cc1 (stereo not given)	-15.5%
Cn1c(SCc2nn[nH]n2)nc2c1c(=O)n(Cc1ccccc1Cl)c(=O)n2C	-24.3%
COC(=O)c1cc(NC(=O)C2CC2)cc(C(=O)OC)c1	-29.2%
CCCNC(=O)C(=O)N/N=C/c1cccs1	-5.7%
CCN(CC)S(=O)(=O)c1csc(C(=O)OCC(=O)c2ccccc2)c1	-7.0%
COCCOC(=O)c1c(C)oc2ccc(OCc3ccccc3)cc12	-6.6%
COCCCNC(=O)c1cc2c(=O)n3cc(C)ccc3nc2nc1NCC1CCCO1 (stereo not given)	?
CC1(C)Cc2c(sc3c2c2ncnn2c2nnc(SCC(=O)NCc4ccco4)n32)CO1	-11.0%
O=C(/C=C/Nc1ccc(Br)cc1F)c1ccccc1	-7.4%
CSCc1cc(N2CCOCC2)nc(SCc2ccc(Cl)cc2Cl)n1	-27.9%
O=c1c2c3c(sc2ncn1/N=C/c1ccc([N+](=O)[O-])o1)CCCC3	-15.6%
CN1CCc2c(sc3c2C(=O)NC(c2ccccc2)N3)C1 (stereo not given)	?
Cn1c(-c2sc3cc(C(F)(F)F)cnc3c2-c2ccccc2)n[nH]c1=S	31.6µM*
c1cc(-c2nnc3sc(C4CCCCC4)nn23)ccn1	-12.4%
COc1ccccc1NS(=O)(=O)c1cc(NC(=O)Cn2cnc3c2c(=O)n(C)c(=O)n3C)ccc1C	-9.9%
O=c1oc2ccc(Cl)cc2cc1-c1nnc(Nc2cccc(C(F)(F)F)c2)s1	-2.3%
N#CC1=C(N)SC(N)=C(C#N)C1c1ccoc1	28.2µM*
CC(=O)N1CCN(S(=O)(=O)c2ccccc2)C1c1ccccc1 (stereo not given)	0.0%
COc1ccc(NC(=O)c2ccc(C#CC(C)(C)O)cc2)cc1	-11.1%
N#Cc1cccc(NC(=O)N2CCCC3(CCN(C(=O)c4ccncc4)CC3)C2)c1	-2.9%
Cc1cccc(N2C(=O)c3cccc4c(N(C)CCO)ccc(c34)C2=O)c1	?
CCCCOC(=O)C1C2C=CC3(CN(CCc4ccccc4)C(=O)C13)O2 (stereo not given)	-14.8%
COc1ccc(OC)c(NC(=O)CSc2nnc(-c3ccco3)n2-c2ccc(C(=O)O)cc2)c1	?
C/C(=N\OCC(=O)NCC(F)(F)F)c1cc2ccccc2o1	-8.6%
Cn1c(C(=O)O)c(CC(=O)NCC2COc3ccccc3O2)c2ccccc21 (stereo not given)	-10.4%
Cc1sc2nc3c4ccccc4c(NCc4ccco4)nn3c(=O)c2c1C	?
CCOC(=O)N1CCC(Nc2c(NCCCN3CCN(CC)CC3)c(=O)c2=O)CC1	-6.6%
CSCCC(NC(C)=O)C(=O)OCC(=O)N(c1ccccc1)c1ccccc1 (stereo not given)	-4.0%
CCC/C=C(\CCC)C(NC(=O)c1ccc(-c2ccccc2)cc1)c1ccc(C(=O)OC)cc1 (stereo not given)	-26.5%
CC(=O)Nc1ccc(NC(=O)CSc2ccc(C)cc2)cc1	-8.9%
O=C(Nc1ccccc1Cl)c1cnccn1	-11.6%
CCC(=O)c1ccc(OCc2ccc(C(=O)OC)cc2)cc1	-4.0%
CCOc1ccc(N(Cc2cc3ccc(C)cc3[nH]c2=O)C(=O)COC)cc1	-12.8%
COc1ccc(S(=O)(=O)N2Cc3ccccc3CC2C(=O)N2CCOCC2)cc1 (stereo not given)	6.5%
CC#CCOC(=O)C1=CCCN(C)C1	2.7%
CC(=O)N1N=C(c2ccccc2O)OC1(C)CC(=O)Nc1ccccc1 (stereo not given)	?
N#Cc1c(SCC(N)=O)nsc1SCc1ccc(Cl)cc1	-12.8%
Cc1sc2nc(SC(C)C)nc(N)c2c1C	-7.7%
COC(=O)c1ccccc1N1C(=O)[C@@H]2C(c3ccc(F)cc3)=NO[C@@H]2C1=O	-2.9%
CC(OC(=O)CCc1nc2ccccc2c(=O)[nH]1)C(=O)c1ccc(C(C)(C)C)cc1 (stereo not given)	?
CC1CCCN(Cc2nc3c(c(=O)n(C)c(=O)n3C)n2CCCc2ccccc2)C1 (stereo not given)	3.5%
COc1nc(OC)nc(N2CCC(C(=O)Nc3cccc4ccccc34)CC2)n1	0.8%
CN(C)CCCOC(=O)c1ccc(Br)cc1	-7.6%

Compounds from the list above containing a COOH group, in the order listed:
SMILES	HPGD block
COc1ccc(OC)c(NC(=O)CSc2nnc(-c3ccco3)n2-c2ccc(C(=O)O)cc2)c1	?
Cn1c(C(=O)O)c(CC(=O)NCC2COc3ccccc3O2)c2ccccc21 (stereo not given)	-10.4%

Next entries:
SMILES	HPGD block
COc1cccc(NC(=O)c2ccc3snnc3c2)c1	-9.4%
C=CCNC(=O)C1CCN(c2nc(C)cc(-c3ccccc3)n2)CC1	?
COCCCNC(=O)c1cc(Sc2ccc(F)cc2)nc2ccccc12	-1.9%
O=C(CSc1nnc(CNC(=O)c2c(F)cccc2Cl)o1)Nc1ccccc1	1.8%
N#Cc1cc([N+](=O)[O-])ccc1N1CCCC1	-5.8%
Cc1c(-c2ccccc2)oc2c(C(=O)N3CCN(c4ccc([N+](=O)[O-])cc4)CC3)cccc2c1=O	-17.8%
COc1ccc(-c2cc(C(=O)Nc3sc4c(c3C#N)CCCC4)c3ccccc3n2)cc1	?
COc1ccc(-c2n[nH]c(=S)n2CC(C)C)cc1	-14.9%
CCCCC/C=C\C[C@H](O)/C=C/C=C/C=C/[C@@H](O)CCCC(=O)O	-5.2%
COC(=O)C1=C(C(=O)OC)[C@@H]2N(C)c3ccccc3[C@@]23C[C@@H](C(=O)OC)N(S(=O)(=O)c2ccc(C)cc2)C3=N1	-1.9%
CSCCOC(=O)c1[nH]c2c(c1C)C(=O)CC(c1ccco1)C2 (stereo not given)	-5.1%
Cc1ccc(C(=O)c2c[nH]cc2-c2ccccc2)cc1	-12.9%
COc1ccc(N(CC(=O)N2CCc3ccccc3C2)S(=O)(=O)c2c(C)[nH]c(=O)[nH]c2=O)cc1	-7.4%
CC(C(=O)Nc1cc([N+](=O)[O-])ccc1Cl)N1CCN(c2ccccc2O)CC1 (stereo not given)	-4.8%
Cc1cc(C)c(OCC(=O)Nc2ccc3c(c2)OCO3)cc1C	-17.4%
Cc1noc(C)c1S(=O)(=O)N1CCCC(C(=O)NCc2ccccn2)C1 (stereo not given)	-0.9%
c1ccc(B2OC[C@@H]3OB(c4ccccc4)O[C@H]([C@@H]4COB(c5ccccc5)O4)[C@@H]3O2)cc1	-4.4%
Cc1nc2c(cnn2-c2ccc(Cl)cc2)c(=O)n1-c1ccc(N2CCC(C)CC2)cc1	-10.9%
O=C(CN(C(=O)CNS(=O)(=O)c1ccccc1)C1CCCC1)NCC1CCCO1 (stereo not given)	1.1%
COc1cccc2c1CCC(NC(C)=O)C2=O (stereo not given)	-20.8%
CCOc1ccc(C(=O)NCC(=O)OCC(=O)Nc2ccccc2OCC)cc1	0.2%
O=[N+]([O-])c1ccc(N2CCN(S(=O)(=O)c3ccc(Cl)c(Cl)c3)CC2)cc1NCCN1CCOCC1	-15.5%
O=[N+]([O-])c1ccc(N=NN(CCO)CCO)cc1	-19.9%
c1csc(CNc2nc3ccccc3n2CCN2CCOCC2)c1	-3.9%
O=C1c2[nH]nc(-c3ccccc3O)c2C(c2ccc(F)cc2)N1CC1CCCO1 (stereo not given)	-11.7%
NC(=O)c1ccccc1NC(=O)/C=C/C(=O)O	?
C=CCNC(=S)N1CCN(c2cccc(C(F)(F)F)c2)CC1	-4.1%
COc1ccccc1-c1csc(Cc2nnc3n2CCCCC3)n1	-14.8%
O=C(Cc1ccc(S(=O)(=O)N2CCCCC2)s1)Nc1cccc2ccccc12	1.5%
O=C(Nc1c(Cl)cccc1Cl)c1cc(=O)n(Cc2ccccc2)c(=O)[nH]1	-14.5%

Sorted by length of the SMILES (ascending): some entries from above.
SMILES	HPGD block
c1csc(CNc2nc3ccccc3n2CCN2CCOCC2)c1	-3.9%
CCOc1ccc(C(=O)NCC(=O)OCC(=O)Nc2ccccc2OCC)cc1	0.2%
O=C(Cc1ccc(S(=O)(=O)N2CCCCC2)s1)Nc1cccc2ccccc12	1.5%
O=C1c2[nH]nc(-c3ccccc3O)c2C(c2ccc(F)cc2)N1CC1CCCO1 (stereo not given)	-11.7%

Continued.
SMILES	HPGD block
O=C(CCn1c(=O)c2ccccc2n(CC(=O)NC2CCCC2)c1=O)NCCc1ccc(Cl)cc1	-15.1%
O=C(c1ccc(C(=O)N2CCCc3ccccc32)s1)N1CCCc2ccccc21	?
Cc1ccccc1-c1ccc(C(=O)NCc2ccccc2)o1	?
Cc1cccc(NS(=O)(=O)c2ccc3c(c2)OCCO3)c1	-1.4%
Cc1cccc(-c2nc(CS(=O)CC(=O)NCC3CCCO3)c(C)o2)c1 (stereo not given)	-8.6%
C(=N\n1cnnc1)/c1ccc2c(c1)OCCO2	?
CN(Cc1ccncc1)C1CC(=O)N(c2ccc(Cl)cc2)C1=O (stereo not given)	-5.5%
OCCOCCNc1ncnc2nc[nH]c12	-3.3%
CC(=O)c1cccc(NC(=O)CCS(=O)(=O)c2cccc3nonc23)c1	0.8%
O=C1c2ccccc2S(=O)(=O)N1Cc1cc(=O)n2ccsc2n1	-12.1%
O=C1CC(/C=C/c2ccccc2)(C(=O)NC2CCCC2)N1c1ccc(S(=O)(=O)N2CCCC2)cc1 (stereo not given)	-9.1%
O=C(NCc1ccco1)c1ccc(N2CCCCC2)c([N+](=O)[O-])c1	31.6µM*
COc1ccc(Br)cc1-c1noc(-c2ccccc2F)n1	-3.0%
CC(C)CC(=O)N1CCN(c2ccc([N+](=O)[O-])cc2Cl)CC1	-10.6%
COc1ccc(CN(CC(=O)NCC2CCCO2)C(=O)CCC(=O)Nc2cc(C)on2)cc1 (stereo not given)	1.2%
CC(C)c1nc2sc3c(NCc4ccccc4)ncnc3c2c2c1COC(C)(C)C2	-27.1%
CCCCc1ccc(S(=O)(=O)Nc2cc(C)on2)cc1	-15.3%
CNC(=O)c1sc(-c2ccc(Cl)cc2)nc1C	-9.8%
CCCC(=O)NCCc1nc2ccccc2n1CC(=O)c1ccccc1	-1.6%
Cc1ccc2n(n1)c(=O)c(Cc1ccccc1)c([O-])[n+]2-c1ccccc1	-9.9%
CN/C(=C/[N+](=O)[O-])NCCSCc1ccc(CN(C)C)o1	-6.3%
CCn1nc(C(=O)Nc2cccc3ccccc23)c(Cl)c1Cl	-23.0%
O=C(CNS(=O)(=O)c1ccccc1)OCC(=O)c1ccc([N+](=O)[O-])cc1	-3.5%
O=C(CSc1ncn[nH]1)NCCc1ccccc1	-12.8%
CCC(C)c1ccc(NC(=O)COC(=O)C2=COCCO2)cc1 (stereo not given)	-5.3%
CCn1cc(C(=O)N2CC=C(c3ccccc3)CC2)c(=O)c2ccc(C)nc21	?
Cc1ccccc1N1CCN(CCCCN2C(=O)C3CCCN3C2=O)CC1 (stereo not given)	-9.4%
O=[N+]([O-])c1ccccc1CSc1nc2ccccc2o1	-16.0%
Cc1ccc(C(=O)N/C(=C\c2ccco2)C(=O)NCCCn2ccnc2)cc1	-11.8%
CC1(C)O[C@@H]2C[C@H]3[C@H]4C[C@H](F)C5=CC(=O)C=C[C@@]5(C)[C@@H]4[C@H](O)C[C@]3(C)[C@]2(C(=O)CO)O1	-3.8%
O=C(Nc1ccccc1-c1ccccc1)C(c1ccccc1)c1ccccc1	-4.4%
c1ccc(-c2cc(CSc3nc4ccccc4[nH]3)on2)cc1	-1.7%
Cc1ccc(S(=O)(=O)N(CCCO)Cc2cc3c(C)ccc(C)c3[nH]c2=O)cc1	19.0%
COc1cccc(-c2nn(C)c3sc(C(=O)N4CCOCC4)cc23)c1	?
COc1ccc(Oc2ncc3nc(-c4ccc(F)cc4)c(=O)n(C)c3n2)cc1	?
CC(=O)N1CCN(CC(=O)Nc2ccc3c(c2)CCC3)CC1	-2.6%
CCn1c(CSc2nc(C)cc(C)n2)nnc1SCC(=O)N1CCCc2ccccc21	-15.5%
Cn1c(=O)c2c(nc(-c3ccccc3)n2C)n(Cc2ccccc2)c1=O	?
COc1ccc(NC(=O)CCNC(=O)Cn2ccc3ccccc3c2=O)c(OC)c1	-6.1%
Cc1nnc(SCC(=O)Nc2cc(C(C)(C)C)nn2-c2ccccc2)s1	-0.8%
CCn1c(SCC(=O)c2ccc(OC)cc2)nnc1C1CC1	-6.1%
CCOC(=O)c1sc(C)c2c(=O)n(CCCN3CCOCC3)cnc12	-20.3%
Cc1cc(NC(=O)COC(=O)c2oc3c(ccc4ccccc43)c2C)no1	-11.9%
COc1ccc(N2CCN(Cc3nc4c(c(=O)n(C)c(=O)n4C)n3Cc3cccc(C)c3)CC2)cc1	-18.7%

Some of these compounds in order of their number in HPGD block, smallest number first.
SMILES	HPGD block
COc1ccc(N2CCN(Cc3nc4c(c(=O)n(C)c(=O)n4C)n3Cc3cccc(C)c3)CC2)cc1	-18.7%
Cc1cc(NC(=O)COC(=O)c2oc3c(ccc4ccccc43)c2C)no1	-11.9%
CCn1c(SCC(=O)c2ccc(OC)cc2)nnc1C1CC1	-6.1%
